A1 inh: caspase 3/7 activation in MEF A1-2A-BIM cells, primary screen, A1 inhibitor project, cell-based, luminescence, HTS. Caspase-Glo 3/7 luminescence, 3 h; percent of clofoctol response, vehicle zero. caspase activation, % (concentration not given with the values). 330,000 tested, 0.066% active. AID 2462, 2010;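 active means over half of replicate activation scores above 10%, or exactly half above 10 with the replicate mean above 10; inconclusive means replicate mean below 10 yet half the replicates above 10; inactive means over half of replicates below 10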;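 further: wells of about 30 µL received 50 nL stock; many hits fall short of the cut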
RanGTP-Impb inh: inhibitors of RanGTP-importin-beta interaction, primary screen, biochemical, FRET, CFP-Ran, YFP-importin-beta, homogeneous; AID 2216, 2009; inhibition, % (concentration not given with the values); 300,000 tested, 1.1% active; cell-free CFP-Ran/YFP-importin-beta FRET ratio; Ran GTPase (GTP-bound) - importin-beta complex;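 active means most replicates above 15%; inconclusive means exactly half above 15%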;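 further: 0% = DMSO wells and 100% = Ran loaded with GDP instead of GTP; wells of about 40 µL received 100 nL stock; the first replicate is given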
LANA-H2A inh: blockers of LANA interaction with H2A/H2B – biochemical, FP readout, HTS, primary screen; cell-free LANA-H2A/H2B peptide, fluorescence polarization; 320,000 tested, 0.6% active; inhibition, % (no concentration beside the values); in the data active means inhibition mostly above about 10%, no sharp cut-off; inactive means mostly below about 6.7%;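 further: stock transfer was 7.5 nL into about 10 µL; 0% = median of vehicle wells and 100% = median of positive control wells; one replicate is shown; the record names a cut of 25% in any replicate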
Target sequence (Q9QR71 whole entry, looked up): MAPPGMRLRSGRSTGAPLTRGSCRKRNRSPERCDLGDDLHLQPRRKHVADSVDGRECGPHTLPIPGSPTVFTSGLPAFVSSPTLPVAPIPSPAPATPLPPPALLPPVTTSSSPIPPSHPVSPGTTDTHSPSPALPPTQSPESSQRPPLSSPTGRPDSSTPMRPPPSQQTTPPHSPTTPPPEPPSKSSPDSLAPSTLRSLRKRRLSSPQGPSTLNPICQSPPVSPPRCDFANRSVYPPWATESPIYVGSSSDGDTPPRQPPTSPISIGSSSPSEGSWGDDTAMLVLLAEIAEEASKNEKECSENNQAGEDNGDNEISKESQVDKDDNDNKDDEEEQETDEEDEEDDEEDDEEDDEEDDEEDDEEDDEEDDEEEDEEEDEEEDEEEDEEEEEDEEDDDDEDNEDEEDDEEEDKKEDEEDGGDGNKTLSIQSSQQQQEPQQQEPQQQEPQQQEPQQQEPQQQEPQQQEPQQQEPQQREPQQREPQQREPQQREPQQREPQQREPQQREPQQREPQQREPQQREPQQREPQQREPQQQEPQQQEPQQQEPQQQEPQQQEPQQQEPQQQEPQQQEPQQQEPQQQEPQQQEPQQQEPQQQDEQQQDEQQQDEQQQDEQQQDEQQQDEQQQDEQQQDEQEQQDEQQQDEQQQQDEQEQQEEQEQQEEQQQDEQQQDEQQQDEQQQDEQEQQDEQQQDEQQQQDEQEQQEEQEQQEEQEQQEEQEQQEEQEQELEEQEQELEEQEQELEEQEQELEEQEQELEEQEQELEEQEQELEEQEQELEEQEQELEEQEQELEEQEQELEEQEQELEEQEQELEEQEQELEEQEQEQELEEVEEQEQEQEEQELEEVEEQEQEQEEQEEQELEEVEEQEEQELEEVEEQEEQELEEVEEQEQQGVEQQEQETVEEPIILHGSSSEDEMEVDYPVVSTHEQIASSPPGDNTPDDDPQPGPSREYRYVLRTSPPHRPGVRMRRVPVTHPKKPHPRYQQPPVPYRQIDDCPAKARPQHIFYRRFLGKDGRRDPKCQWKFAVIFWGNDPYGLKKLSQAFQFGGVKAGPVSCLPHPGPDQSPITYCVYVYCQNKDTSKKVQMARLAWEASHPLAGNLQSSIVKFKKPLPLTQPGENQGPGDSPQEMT
UCH37 inh: inhibitors of human UCH37 deubiquitinase, primary screen, biochemical, Ub-AMC cleavage, fluorescence | inhibition, % (no concentration beside the values) | AID 588478, 2011 | 330,000 tested, 0.33% active | purified proteasome/UCH37;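 active means mean of two replicates above 20%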;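 further: 0% = compound-free wells with enzyme and 100% = wells lacking proteasome; stock transfer was 100 nL into about 20 µL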
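Schedule: 30 min plus 25 min, room temperature / Material: human UCH37 within purified proteasomes / Technique: AMC fluorescence intensity at 355/460 nm / Buffer or medium: pH 7.4 Tris-HCl (50 mM) with ovalbumin, ATP-MgCl2, DTT / Controls: wells without proteasome as full block, compound-free enzyme plus substrate as uninhibited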
T cruzi repl: inhibitors of intracellular T. cruzi growth, primary screen, luminescence, NIH3T3 host cells. 300,000 tested, 1.4% active. AID 1885, 2009. T. cruzi beta-gal in NIH3T3, 90 h. inhibition, % (concentration not given with the values);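 active means mean inhibition across valid replicates above about 55%, limit read from the data; inconclusive means mean below that limit but half or more replicates reach it; inactive means mean below it, under half of replicates reach it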;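 further: signal also drops with host cell toxicity which is not excluded here; 0% = plate median of DMSO wells and 100% = zero luminescence signal; higher percent means less beta-gal luminescence so fewer parasites; stock transfer was 50 nL into about 50 µL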
Beta apoptosis: inhibitors of cytokine-induced beta cell apoptosis, primary screen, luminescence. protection from apoptosis, % (no concentration beside the values). INS-1E cytokine-induced death, ATP luminescence, 48 h; percent of positive-control rescue, neutral wells zero. AID 435005, 2010. 300,000 tested, 0.8% active;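 active means all replicates at 75% or more, or half of them and the mean; inconclusive means half reach 75% but not the mean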;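 further: 0% = cytokine-treated negative control wells and 100% = positive control rescue; higher means more ATP so stronger rescue from cytokine killing; wells of about 40 µL received 100 nL stock; the first replicate is given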
Calb FLC: C. albicans growth inhibition with fluconazole, primary screen, CaCi-2 strain, Alamar Blue fluorescence | growth inhibition, % (concentration not given with the values) | AID 1979, 2009 | C. albicans CaCi-2 (fluconazole-resistant clinical isolate) + fluconazole, 48 h | 300,000 tested, 0.57% active;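 active means most replicates above 75%; inconclusive means exactly half above 75%; inactive means most below 75%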;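 further: all wells also contain fluconazole at 8 µg/ml as a sub-toxic cotreatment; 0% = median of DMSO wells and 100% = median of geldanamycin control wells; wells of about 8 µL received 7.5 nL stock; the first replicate is given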
B2AR ag: beta2AR agonists driving receptor internalization, primary screen, cell-based, FAP fluorogen, flow cytometry | AID 504454, 2011 | Am2.2-beta2AR cells; reference of the scale not given here | 340,000 tested, 0.43% active | response, % (no concentration beside the values) | Beta-2 adrenergic receptor (Homo sapiens), P07550;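 active means response above a set limit, near 3 SD of response in nonfluorescent compounds, cut at about 42% in these data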;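 further: stock transfer was 100 nL into about 11 µL; a reference agonist was the positive control; negative values mostly stem from fluorescent compounds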
* hit, by the source's call; ? = inconclusive; / = not tested or not shown.

SMILES	A1 inh	RanGTP-Impb inh	LANA-H2A inh	UCH37 inh	T cruzi repl	Beta apoptosis	Calb FLC	B2AR ag
[O-]/C(=C(\C(=S)Nc1cccc2ccccc12)[n+]1ccccc1)c1ccc(Cl)s1	-0.2	0.7	-0.2	3.0	-4	/	10	19
CC(C)Oc1ccc(N2CC(C(=O)Nc3ccccc3C(=O)NC3CC3)CC2=O)cc1 (stereo not given)	1.1	-1.2	3.1	5.2	-2	/	9	-3
Cc1cccc(SCC(=O)Nc2ccc3c(c2)OCCO3)c1	-0.8	-0.8	-0.7	2.8	-2	10	-15	-6
COc1ccc(C(C)(C)C)cc1NC(=O)CCNC(=O)c1ccco1	0.8	0.2	-2.6	1.2	4	-2	3	-12
Cc1ccc(Cn2c(N3CCCCCC3)nc3c2c(=O)[nH]c(=O)n3C)cc1	0.7	/	-1.4	4.8	/	4	/	-7
NC(=O)CC(NC(=O)Cc1cccc2ccccc12)c1ccc(N2CCC(N3CCCC3)CC2)c([N+](=O)[O-])c1 (stereo not given)	-0.1	6.1	4.5	3.7	-11	3	-8	2
NNC(=O)c1cc2c(s1)CCCCCC2	1.2	-0.5	3.6	1.0	0	-1	-2	-7
CC(C)C(OC(=O)c1cccs1)C(=O)NCc1cccs1 (stereo not given)	0.5	-1.8	-0.2	2.4	-16	1	-14	4
CCc1c(C)c2ccc(OC(C)C(=O)NC(Cc3c[nH]c4ccc(O)cc34)C(=O)O)c(C)c2oc1=O (stereo not given)	-0.9	1.1	-3.1	-45	-11	-5	-7	15
CCc1nnc(NC(=O)CSc2ccc(-c3ccco3)nn2)s1	0.2	-1.1	3.3	4.2	-6	0	-3	-8
COc1ccc(C(=O)CSc2nc3ncccc3[nH]2)cc1OC	0.3	-0.2	1.3	1.0	-26	-1	0	-8
CCOC(=O)c1cnc(/N=C/N(C)C)s1	0.6	6.2	-0.4	/	-8	-4	-11	-5
Cc1ccc(C)c(NC(=O)COC(=O)c2cccc(S(=O)(=O)N3CCCCC3)c2)c1	-0.3	/	-3.8	-0.2	-3	0	18	-4
COc1ccc(S(=O)(=O)N2CC3CCCN3c3cc(C(F)(F)F)ccc32)cc1 (stereo not given)	0.4	-3.3	-1.6	3.0	43	17	8	-5
CC(O)C(NS(=O)(=O)c1ccc(Cl)cc1)C(=O)OCc1nnc(-c2ccccc2)o1 (stereo not given)	-0.6	-1.2	-6.7	1.4	-3	-18	3	9
Cc1ccc(Cc2nnc(SCC(=O)Nc3ccccc3C)[nH]c2=O)cc1	0.5	4.9	6.0	1.8	-3	/	-1	0
CC(C)Cc1ccc(S(=O)(=O)N2CCCC2)cc1	-0.1	0.5	4.0	-1.4	8	15	-13	4
Clc1cccc(Oc2ncccn2)c1	1.0	?	3.0	4.0	-8	-10	-1	5
O=C(Nc1ccccc1Cl)c1ccc([N+](=O)[O-])o1	0.7	-2.3	-3.3	4.5	5	-7	100*	1
O=C(O)C(c1ccccc1)C(c1ccccc1)c1ccccc1 (stereo not given)	-0.8	4.3	1.0	-0.8	-10	-1	?	10
Cc1ccc(N2CC(C(=O)OCc3ccc([N+](=O)[O-])cc3)CC2=O)cc1 (stereo not given)	0.2	2.9	0.5	3.9	3	-8	11	-5
COc1ccc(Cl)cc1N/C(N)=N/c1nc(C)cc(=O)[nH]1	-0.6	1.4	-1.1	4.9	7	-1	4	-11
CCOC(=O)c1ccc(NC(=O)CSc2nc3c(c(=O)n2-c2ccccc2OC)SCC3)cc1	-0.1	-2.3	6.3	3.8	19	0	-3	-4
COc1cccc(C2C(C(=O)Nc3ccc(C)cc3C)=C(C)Nc3ncnn32)c1OC (stereo not given)	-0.2	-2.4	-0.6	-3.6	-16	0	11	7
CCSC1=C(C#N)C2(CCCCC2)C2=C(CC(C)(C)CC2=O)N1	-0.5	6.8	-3.8	-28	27	/	5	-2
COc1ccc(C2(C)NC(=O)N(CC(=O)Nc3ccc(S(=O)(=O)N4CCCC4)cc3)C2=O)cc1 (stereo not given)	-0.8	2.8	-2.1	-1.2	1	1	43	4
Cc1ccc(OCc2ccc(C(=O)Nc3nccs3)o2)cc1	-0.9	-3.7	-3.6	-4.2	-1	/	-11	6
CCOC(=O)Cc1csc(NC(=O)C(NC(=O)C2CCC(C)CC2)C(C)C)n1 (stereo not given)	0.9	?	0.0	1.0	6	6	-11	0
CN(C)CCCSc1nc(-c2ccccc2)nc2c1CCC2	-0.3	0.7	-9.9	5.9	71*	-5	-24	2
O=C(c1cc([N+](=O)[O-])ccc1Cl)N1CCN(Cc2ccc3c(c2)OCO3)CC1	0.1	-1.6	0.6	0.8	-3	2	-35	-4
Cn1nnnc1SCC(=O)NC1CCCCC1	-0.7	-3.2	-0.1	0.9	-18	-1	-8	8
O=C(Nc1ccc(F)cc1)c1cccnc1NCCc1ccccc1	1.0	?	/	-21	12	1	-25	0
Nn1c(Cc2cccc3ccccc23)nnc1SCCOc1ccc(Br)cc1	0.1	0.5	-4.2	5.0	20	-1	-24	-1
O=C(OCC(=O)N1CCN(C(=O)c2ccco2)CC1)c1ccccc1O	1.1	1.8	2.3	-1.7	-4	-2	3	6
N#Cc1c(=O)c2nc(NCCCO)ncc2n2c(=O)c3ccccc3[nH]c12	-0.9	-37	1.6	18	-2	/	5	0
C[C@@H]1NC(=O)c2cc([N+](=O)[O-])cc(I)c2OCC[C@@H](C(N)=O)NC(=O)[C@H](CCCCN)NC1=O	0.2	0.1	0.0	5.9	-11	2	-7	0
O=C(Nc1ccccc1-c1ccccc1)c1ccc(Br)o1	0.6	0.6	-4.9	6.4	9	2	-9	0
CCCN1C(=O)C(NC(=O)c2ccncc2)(C(F)(F)F)C2=C1CC(C)(C)CC2=O (stereo not given)	0.3	1.7	4.2	2.2	-19	-11	21	10
CC(=O)c1ccc(-n2ccc(=O)cc2)cc1	-0.4	-0.3	1.1	1.4	2	-1	-3	-1
Cc1ccc2nc(NC(=O)c3cccc(-c4cc5ccccc5oc4=O)c3)sc2c1	0.0	-1.6	2.8	-78	64*	56	1	/
COC(=O)c1ccccc1NC(=O)c1ccc(Cn2cc(Cl)cn2)o1	0.2	0.9	-7.9	-8.9	6	-8	-1	2
CCOC(=O)N1CCC2(CC1)CC(=O)c1cc(O)ccc1O2	2.1	-1.7	8.8	-4.4	-9	-3	-5	0
CC(=O)N(C)c1ccc(NC(=S)NCC(C)C)cc1	-0.7	-0.5	-1.7	3.4	-10	-3	16	9
Cc1cc(C)cc(NC(=S)/N=C(\N)Nc2nc(C)c3ccccc3n2)c1	0.8	-0.1	/	-0.7	30	1	-16	-2
COc1cc(C2Nc3ccccc3NC3=C2C(=O)CC(C)(C)C3)cc(OC)c1OC (stereo not given)	0.3	-0.1	1.1	9.4	-4	-1	12	-5
COc1ccccc1NS(=O)(=O)c1cc(NC(=S)NCCN2CCOCC2)ccc1N1CCOCC1	0.0	-2.4	3.2	2.9	-10	19	8	-2
COc1ccc(C(C(=O)NC(C)(C)C)N(CC2CCCO2)C(=O)CCC(=O)Nc2cc(C)on2)cc1 (stereo not given)	0.7	-0.3	-15	1.4	5	-3	15	2
CC(OC(=O)c1cc(O)c2ccccc2c1O)C(=O)Nc1ccc(C(N)=O)cc1 (stereo not given)	-4.3	-3.5	-1.6	-13	-7	3	/	8
COc1ccc(NC(=O)Nc2cnccn2)cc1OC	-0.1	0.6	-4.1	1.9	1	3	5	-3
CN1C(=O)Nc2cccc3cccc1c23	-0.9	?	4.3	1.9	-5	3	10	0
Cc1nn(Cc2ccc([N+](=O)[O-])cc2)c(=O)n1-c1ccccc1Cl	0.1	1.3	5.8	4.6	-12	-1	-16	-4
Cn1c(=O)oc2cc(S(=O)(=O)N3CCCC(C(=O)Nc4nccs4)C3)ccc21 (stereo not given)	0.3	0.6	8.9	/	-22	3	-2	-27
CSc1nncn1/N=C/c1ccccc1F	-0.8	-0.4	-2.2	/	-5	4	?	-5
CC1CCN(C(=O)c2ccc(S(=O)(=O)Cc3cc(F)ccc3F)c([N+](=O)[O-])c2)CC1	0.5	-2.1	-1.2	1.6	7	-42	-7	-2
CC(NC(=O)COC(=O)c1cccc(S(=O)(=O)N2CCCC2)c1)c1ccccc1 (stereo not given)	0.1	/	1.0	-0.1	/	-4	/	2
COc1cc(OC)c(C(=O)NCc2cccnc2)cc1OC	-0.1	-0.4	4.5	2.9	-12	-3	26	0
O=C(CN(c1ccc2c(c1)OCCO2)S(=O)(=O)c1ccccc1)NCc1ccc(Cl)cc1	0.4	1.9	2.8	1.0	?	15	-7	0
CN(C)C(=O)NCc1ccc(S(N)(=O)=O)cc1	-1.0	1.4	-1.0	1.4	3	3	-8	9
COC(=O)[C@H](CCSC)NC(=O)Nc1cc(OC)cc(OC)c1	-0.3	-0.2	-2.7	1.0	8	-5	-2	9
COc1ccc2oc(C(=O)OCC(=O)/C(C#N)=C(\C)N)c(C)c2c1	-2.1	-3.3	4.2	-14	0	3	4	26
O=C(Nc1cccc(-c2cnc3ccccc3n2)c1)c1cccc(NC(=O)c2ccco2)c1	/	-3.5	-2.4	-1.1	26	13	57	14

Profiles, looked up by structure. Order of screens: A1 inh	RanGTP-Impb inh	LANA-H2A inh	UCH37 inh	T cruzi repl	Beta apoptosis	Calb FLC	B2AR ag
Results for COC(=O)[C@H](CCSC)NC(=O)Nc1cc(OC)cc(OC)c1 : -0.3	-0.2	-2.7	1.0	8	-5	-2	9
Results for COc1ccccc1NS(=O)(=O)c1cc(NC(=S)NCCN2CCOCC2)ccc1N1CCOCC1 : 0.0	-2.4	3.2	2.9	-10	19	8	-2
Results for CC1CCN(C(=O)c2ccc(S(=O)(=O)Cc3cc(F)ccc3F)c([N+](=O)[O-])c2)CC1 : 0.5	-2.1	-1.2	1.6	7	-42	-7	-2
Results for CSc1nncn1/N=C/c1ccccc1F : -0.8	-0.4	-2.2	/	-5	4	?	-5
Results for COc1ccc(NC(=O)Nc2cnccn2)cc1OC : -0.1	0.6	-4.1	1.9	1	3	5	-3
